Screening data as filed in PubChem BioAssay.
HTT prom inh: HTT promoter inhibition; HEK293 HTT promoter firefly luciferase reporter (activity 0% = vehicle and -100% = no light), 24 h; Potency, µM (highest dose often 57.5 µM), inactives show at the highest dose activity change, negative = inhibition, actives largely listed as inhibitors; hit rate 0.93% among 48,000; AID 1508623; active means well fitted inhibition curve with a large enough effect; inconclusive means small, poorly fitted or top-dose-only effect; inactive means no such curve, though single readings can be large or run the other way; further: nearly all actives have a fitted effect of over 50% in size
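Quantitative HTS used concentration series of up to 57.5 uM final on HEK293 luciferase reporter cells, 24 h at 37 degrees C. Readout was Dual-Glo firefly luminescence.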
PMP22 txn prim: PMP22 gene transcription modulation; S16 Pmp22-F2sN Schwann cells (luciferase reporters placed in the Pmp22 gene), FLuc/NLuc coincidence luminescence, 24 h; Potency, µM (highest dose often 57.5 µM), inactives show at the highest dose activity change, negative = inhibition, most hits filed as inhibitors; hit rate 2% among 43,000; AID 1508649; active = clear falling dose curves in both reporters; inconclusive = both reporters move, but less clearly or upward; inactive = either reporter flat; the % is the NLuc reporter signal; further: on the % scale 0 is the no-effect control and ±100 the full control effect; some results filed as inactive show a strong effect at the top dose
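Luminescent read-out of sequential FLuc and NLuc signals from a reporter embedded in the Pmp22 3' UTR of S16 Schwann cells, taken after 24 h compound exposure at 37C; compounds reducing both signals score as inhibitors of expression.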
An asterisk follows results filed as active; [ ] = dose if it differs, or a comment. Potency means the concentration at half of the fitted maximal effect.

For CCc1ccc(-n2nc(CO)c(C(=O)NCc3cccnc3)n2)cc1 the results were HTT prom inh -23.1% and PMP22 txn prim -17.8%.
For CCc1ccc(CNC(=O)C(CC)n2ccc3cc(S(=O)(=O)N4CCCCC4)ccc32)cc1 (stereo not drawn) the results were HTT prom inh inconclusive and PMP22 txn prim inconclusive.
`COCCCNC(=O)c1c(-c2ccccc2)c(-c2ccccc2)nn(C)c1=O` gave HTT prom inh -2.5% and PMP22 txn prim -5.1%.
COc1ccc(CCNC(=O)C2CCCN(c3nc4c(C)cc(C)cc4s3)C2)cc1OC (stereo not drawn) was read as HTT prom inh -10.9% and PMP22 txn prim 0.7%.
CCOC(=O)C1CCCN(c2nc3c(S(=O)(=O)c4ccc(C)c(C)c4)nnn3c3ccc(Cl)cc23)C1 (stereo not drawn) was read as HTT prom inh -2.4% and PMP22 txn prim inconclusive.
CCCOc1ccc(-c2nn(-c3ccccc3)cc2C2NC(=O)NC(C)=C2C(=O)OC)cc1 (stereo not drawn) was read as HTT prom inh -15.1% and PMP22 txn prim -82.9%.
CCSC1=NC2(CCN(C(=O)NC3CCCCC3)CC2)N=C1c1ccc(Cl)cc1 was read as HTT prom inh -14.1% and PMP22 txn prim -11.4%.
Screening CCN(Cc1ccccc1)S(=O)(=O)c1ccc(F)c(C(=O)Nc2cc(C(F)(F)F)ccc2Cl)c1 returned HTT prom inh -23.7% and PMP22 txn prim 1.8%.
`Cc1cc(N2CCC(C)CC2)nc2ccc(NC(=O)Cc3c(F)cccc3Cl)cc12` gave HTT prom inh -20.3% and PMP22 txn prim -34.9%.
`N#C/C(=C/c1ccc(Cl)cc1)c1nc(-c2ccc(Br)cc2)cs1` gave HTT prom inh -8.2% and PMP22 txn prim -40.2%.
Screening COCCNC(=O)Cn1ccc2cc(S(=O)(=O)N3CCCCCC3)ccc21 returned HTT prom inh -6.8% and PMP22 txn prim -13.8%.
For CCC(O)c1nc2ccccc2n1Cc1cc(C)ccc1C (stereo not drawn) the results were HTT prom inh -12.2% and PMP22 txn prim -11.3%.
Screening COc1ccc(N2CCN(C(=O)c3ccc(-c4nc(COc5ccccc5)c(C)o4)cc3)CC2)cc1 returned HTT prom inh -7.8% and PMP22 txn prim -19.9%.
`CC1CCc2nc3ncn(Cc4ccc(Cl)cc4)c(=O)c3cc2C1` (stereo not drawn) gave HTT prom inh 46.9%[activator] and PMP22 txn prim 12.5%.
`COCCN1Cc2cccc(C(=O)Nc3ccc(C)cc3C)c2C1=O` gave HTT prom inh -0.5% and PMP22 txn prim -16.4%.
For COc1ccc(C(=O)N2CCN(c3nc4c(C)c(Cl)ccc4s3)CC2)c(OC)c1 the results were HTT prom inh -5.5% and PMP22 txn prim inconclusive.
Screening O=C(C1CCC(Cn2c(=O)c3sccc3n(Cc3cccc(F)c3)c2=O)CC1)N1CCOCC1 (stereo not drawn) returned HTT prom inh -17.5% and PMP22 txn prim -22.0%.
For Cc1ccc(O)c(NC(=O)C2=CC(c3cccs3)=NS(=O)(=O)N2C)c1 the results were HTT prom inh inconclusive and PMP22 txn prim -24.9%.
`Cc1ccc(C)c(CN2C(=O)C(O)(c3c[nH]c4ccccc34)c3ccccc32)c1` (stereo not drawn) gave HTT prom inh inconclusive and PMP22 txn prim inconclusive.
Cc1ccc(Cl)cc1N1CCN(C(=O)Cn2ncc3c4ccccc4n(C)c3c2=O)CC1 was read as HTT prom inh 21.5% and PMP22 txn prim 4.1%.
For CN(c1ccccc1)S(=O)(=O)c1nnc(NC(=O)c2ccco2)s1 the results were HTT prom inh 9.9% and PMP22 txn prim -55.5%.
Screening Cc1ccccc1C(=O)Nc1ccc(C(=O)OCc2cc(=O)n3nc(C(C)C)sc3n2)cc1 returned HTT prom inh 0.2% and PMP22 txn prim inconclusive.
Screening CCn1c(-c2nonc2N)nc2cncc(CNC3CCNCC3)c21 returned HTT prom inh -3.9%.
For Cc1cc(C)cc(NC(=O)CCS(=O)(=O)c2ccc3c(c2)oc(=O)n3C)c1 the results were HTT prom inh -5.6% and PMP22 txn prim -8.1%.

Looked up by compound from the entries so far:
`CC1CCc2nc3ncn(Cc4ccc(Cl)cc4)c(=O)c3cc2C1` (stereo not drawn) gave HTT prom inh 46.9%[activator] and PMP22 txn prim 12.5%.
For CN(c1ccccc1)S(=O)(=O)c1nnc(NC(=O)c2ccco2)s1 the results were HTT prom inh 9.9% and PMP22 txn prim -55.5%.
Cc1ccc(Cl)cc1N1CCN(C(=O)Cn2ncc3c4ccccc4n(C)c3c2=O)CC1 was read as HTT prom inh 21.5% and PMP22 txn prim 4.1%.
Screening CCn1c(-c2nonc2N)nc2cncc(CNC3CCNCC3)c21 returned HTT prom inh -3.9%.
Screening Cc1ccccc1C(=O)Nc1ccc(C(=O)OCc2cc(=O)n3nc(C(C)C)sc3n2)cc1 returned HTT prom inh 0.2% and PMP22 txn prim inconclusive.
Screening COc1ccc(N2CCN(C(=O)c3ccc(-c4nc(COc5ccccc5)c(C)o4)cc3)CC2)cc1 returned HTT prom inh -7.8% and PMP22 txn prim -19.9%.
`Cc1ccc(C)c(CN2C(=O)C(O)(c3c[nH]c4ccccc34)c3ccccc32)c1` (stereo not drawn) gave HTT prom inh inconclusive and PMP22 txn prim inconclusive.

Structural class: those above containing a thiophene ring, fused or not.
Screening O=C(C1CCC(Cn2c(=O)c3sccc3n(Cc3cccc(F)c3)c2=O)CC1)N1CCOCC1 (stereo not drawn) returned HTT prom inh -17.5% and PMP22 txn prim -22.0%.
For Cc1ccc(O)c(NC(=O)C2=CC(c3cccs3)=NS(=O)(=O)N2C)c1 the results were HTT prom inh inconclusive and PMP22 txn prim -24.9%.

New compounds follow:
For C=CCc1c(C)nc2nc(SCC(=O)Nc3ccc(OCC)cc3)nn2c1C the results were HTT prom inh 1.7% and PMP22 txn prim -5.2%.
Screening Cc1nc2cc(-c3cccc(F)c3)nn2c(C)c1CCC(=O)NC1CCCCC1 returned HTT prom inh 1.26µM* and PMP22 txn prim 16.1%.
`Cn1nnc2c(NCc3c(F)cccc3F)ncnc21` gave HTT prom inh -13.3% and PMP22 txn prim -7.2%.
Screening COc1ccc(CNC(=O)Cn2c(=O)nc(-c3ccccc3F)c3cc(Cl)ccc32)cc1OC returned HTT prom inh -16.6% and PMP22 txn prim 40.3%.
For Cc1ccc(NC(=O)c2sc3nc(-c4ccc(F)cc4)cn3c2C)c(C)c1 the results were HTT prom inh -15.2% and PMP22 txn prim 1.2%.
Screening Cc1ccc(O)c(-n2nc3ccccc3n2)c1 returned HTT prom inh 14.0%.
For COc1ccc(CNC(=O)c2cc(Nc3ccccc3C)nc3ccccc23)cc1 the results were HTT prom inh -1.3% and PMP22 txn prim -21.2%.
`O=C(NCc1ccccc1Cl)c1cc2ccccc2o1` gave HTT prom inh 4.5% and PMP22 txn prim -13.1%.
Screening Cc1ccc(-c2cc(C(=O)NCc3cnn(C)c3)c3cc(Br)ccc3n2)cc1 returned HTT prom inh 9.8% and PMP22 txn prim inconclusive.
CC(C)COCC(CN(Cc1ccccc1)c1ccccc1)N1CCCC1 (stereo not drawn) was read as HTT prom inh -33.5%.
For CC(C)NC(=O)CCCN1C(=O)CCn2nc(-c3cccn3C)cc21 the results were HTT prom inh 1.4% and PMP22 txn prim 2.9%.
For CCOc1ccc(S(=O)(=O)N(CC(=O)Nc2ccc(OC)c(Cl)c2)c2ccccc2)cc1 the results were HTT prom inh -18.7% and PMP22 txn prim inconclusive.
`CCc1nnc(NC(=O)c2nc(S(=O)(=O)Cc3ccc(C)cc3)ncc2Cl)s1` gave HTT prom inh inconclusive and PMP22 txn prim inconclusive.
`CCOc1ccc(CC(=O)NC2CC(=O)N(c3ccc(C)c(C)c3)C2)cc1` (stereo not drawn) gave HTT prom inh -22.7% and PMP22 txn prim 18.8%.
Screening COc1ccc(OC)c(NC(=O)c2c(NCc3ccc(OC)c(OC)c3)sc3c2CCC3)c1 returned HTT prom inh -7.4% and PMP22 txn prim inconclusive.
For Cc1cc(C)c2c(c1)c(C)cc1nnc(SCc3ccccc3C#N)n12 the results were HTT prom inh -10.2% and PMP22 txn prim -10.1%.
`CCn1cc(C(=O)NCCc2ccc(OC)c(OC)c2)c(=O)c2cc(S(=O)(=O)N3CCOCC3)ccc21` gave HTT prom inh 27.7% and PMP22 txn prim -20.8%.
For O=C(CCC1N=C2c3ccccc3N=C(SCc3ccc(F)cc3)N2C1=O)N1CCN(c2ccccc2)CC1 (stereo not drawn) the results were HTT prom inh -3.9% and PMP22 txn prim -54.7%.
Screening Cn1cnc(S(=O)(=O)N2CCCC(C(=O)Nc3cccc(C#N)c3)C2)c1 (stereo not drawn) returned HTT prom inh -16.7% and PMP22 txn prim -1.7%.
For O=C1CC[C@@H](C(=O)O)N1 the results were HTT prom inh 4.8%.
`Cc1cccc(N(C)C(=O)c2cc(S(=O)(=O)N3CCCCC3)c[nH]2)c1` gave HTT prom inh -9.6% and PMP22 txn prim 13.0%.
For CN(C)c1ccc(C(CNC(=O)Cc2ccc(Cl)cc2)N2CCOCC2)cc1 (stereo not drawn) the results were HTT prom inh -22.1% and PMP22 txn prim -13.1%.
`CCc1ccc(CNC(=O)c2cc(=O)[nH]c3ccc(S(=O)(=O)N4CCCCC4)cc23)cc1` gave HTT prom inh -1.4% and PMP22 txn prim -0.6%.
Cc1ccccc1-c1nc(SCC(=O)NCc2ccco2)c2c(=O)n(C)c(=O)n(C)c2n1 was read as HTT prom inh 15.3% and PMP22 txn prim -0.4%.
Screening Cc1ccc(NC(=O)CCC(=O)N2Cc3ccccc3Oc3ncccc32)c(C)c1 returned HTT prom inh -10.2% and PMP22 txn prim 1.1%.
COc1cccc(-c2n[nH]c3c2C(c2ccccn2)N(C)C3=O)c1 (stereo not drawn) was read as HTT prom inh -0.2% and PMP22 txn prim -27.3%.
Screening CCOC(=O)c1ccc(NC(=O)Cn2cc(C(=O)c3ccc(Cl)cc3)c(=O)c3ccc(C)nc32)cc1 returned HTT prom inh -27.3% and PMP22 txn prim 12.1µM*.
`O=c1c2sccc2n(Cc2cc(=O)n3ccccc3n2)c(=O)n1-c1cccc(C(F)(F)F)c1` gave HTT prom inh -8.4% and PMP22 txn prim -30.3%.
For CCc1ccc(C2CC(=O)c3c([nH]c(C(=O)OC4CCCCCC4)c3C)C2)cc1 (stereo not drawn) the results were HTT prom inh -3.7% and PMP22 txn prim -8.8%.
`CCc1ccccc1N(CC)C(=O)c1cc2c(s1)-c1ccccc1SC2` gave HTT prom inh inconclusive and PMP22 txn prim inconclusive.
Screening CC(=O)Nc1ccc(S(=O)(=O)Nc2ccc(-c3cn4c(C)csc4n3)cc2)cc1 returned HTT prom inh -35.4% and PMP22 txn prim -0.8%.
Screening Cc1cccc(C)c1NC(=O)c1cc(S(=O)(=O)N2CCc3ccccc3C2)ccc1F returned HTT prom inh -16.7% and PMP22 txn prim -7.9%.
For CCC(Oc1ccccc1)C(=O)Nc1nnc(S(=O)(=O)Nc2ccccc2)s1 (stereo not drawn) the results were HTT prom inh -5.2% and PMP22 txn prim -16.8%.
COc1cc(-c2oc3ccc(C)cc3c(=O)c2O)cc(OC)c1OC was read as HTT prom inh -25.5% and PMP22 txn prim -95.1%.
Screening COC(=O)c1ccc2c(=O)n3nc(Nc4ccc(F)cc4F)sc3nc2c1 returned HTT prom inh -1.8% and PMP22 txn prim 2.4%.
`Cc1ccc(Cl)cc1-n1c(=O)c2sc3ccccc3c2n(Cc2ccccc2)c1=O` gave HTT prom inh -9.7% and PMP22 txn prim -23.9%.
`CCOc1ccc(Cn2c(CNS(=O)(=O)c3c(C)cc(C)cc3C)nc3cccnc32)cc1` gave HTT prom inh -11.6% and PMP22 txn prim -0.5%.
`COc1ccc(CC(=O)N2CC(=O)Nc3ccc(F)cc3C2c2ccccc2)cc1` (stereo not drawn) gave HTT prom inh -22.0% and PMP22 txn prim 9.8%.
O=C(NCCc1ccccc1)c1nn(-c2ccccc2F)nc1CO was read as HTT prom inh -29.0% and PMP22 txn prim -1.4%.
Cc1cc(C)cc(-n2ccnc2SCC(=O)Nc2ccc(C)c(Cl)c2)c1 was read as HTT prom inh -14.1% and PMP22 txn prim inconclusive.
Screening CC(C)(C)c1ccc(C(=O)NC2(C(F)(F)F)NC(=O)N(CCc3ccccc3)C2=O)cc1 (stereo not drawn) returned HTT prom inh inconclusive and PMP22 txn prim inconclusive.
For Cc1ccc(NC(=O)CCc2nc3cccnc3n2-c2ccccc2)cc1Cl the results were HTT prom inh inconclusive and PMP22 txn prim 0.9%.
`Cc1ccc2c(CNCc3ccc(C)o3)c(C(=O)O)n(Cc3ccccc3C)c2c1` gave HTT prom inh -19.8% and PMP22 txn prim -20.2%.
`CCc1cccc(CC)c1NC(=O)Cn1nnc2sc(-c3ccccc3)cc2c1=O` gave HTT prom inh 5.5% and PMP22 txn prim -13.4%.
Screening Cc1cccc(C)c1NC(=O)CCS(=O)(=O)c1cccc2nonc12 returned HTT prom inh -4.4% and PMP22 txn prim 6.4%.
Screening CCOc1ccccc1CNC(=O)CCCn1c(=O)c2cccn2c2ccc(F)cc21 returned HTT prom inh -22.3% and PMP22 txn prim inconclusive.
For CCOc1ccc(CCNC(=O)CCc2c(C)nc3c(-c4ccccc4)c(C)nn3c2C)cc1OCC the results were HTT prom inh -4.6% and PMP22 txn prim -27.0%.
For O=C(Cc1ccc(Cl)cc1)Nc1nnc2n1CCS2 the results were HTT prom inh 2.9% and PMP22 txn prim -26.9%.
